Bioassay records as filed in PubChem BioAssay.
PINK1 modulator: modulators of PINK1 expression | AID 624263 | 0.2% of 410,000 active | PINK1 immunofluorescence, high-content cytometry, 24 h | Potency, µM (series often up to 76.6 µM), for inactives: top-dose activation (PINK1 increase), most hits filed as activators; active = well fitted activation curve with a large enough effect; inconclusive = small, poorly fitted or top-dose-only effect; inactive = flat fitted curve, though single readings scatter; cell line not stated here;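 note: % of control where 0% means no effect; nearly all actives have a fitted effect of over 65% in size; a mitochondrial uncoupler was the plate control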
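PINK1 protein level read as immunofluorescence by microplate cytometer in a fixed, stained stable cell line after 24 h exposure to five compound concentrations, with CCCP as control.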
* marks the source's active call; other numbers are inactive results; ? = inconclusive. Potency is the fitted concentration of half-maximal effect.

| PINK1 modulator | smiles |
| --- | --- |
| 1.8% | COc1cccc(CNC(=O)Cn2ncn3c(cc4ccccc43)c2=O)c1 |
| 3.6% | CCOc1ccc2c(c1)[C@@H]1C=CC[C@@H]1[C@H](c1ccccc1Cl)N2 |
| 0.4% | CC(C)C(=O)Nc1ccc2nc(SCC(=O)N3CCOCC3)sc2c1 |
| 18% | CCOC(=O)c1ccc(-c2ccc3ncnc(NCc4csc(C)n4)c3c2)o1 |
| -0.6% | Cc1cc(C)nc(NS(=O)(=O)c2ccc(NC(=O)c3ccccc3O)cc2)n1 |
| -0.7% | COc1ccccc1CCc1nc2ccccc2n1C1CCN(C(=O)c2cc(C)nn2C)CC1 |
| 0.9% | COc1cc2c(NC3CCN(C)CC3)nc(N3CCCN(C)CC3)nc2cc1OCc1ccccc1 |
| -1.8% | COc1ccc(-n2ncc(C(=O)NCc3cccs3)c2C2CCN(C(=O)OC(C)(C)C)CC2)cc1 |
| -0.2% | CCC1CN(CC(=O)NC(C)c2cn(C)nc2C)Cc2cc(OC)ccc2O1 (stereo unspecified) |
| 2.5% | COc1ccc(NC(=O)CCN2CCN(c3cccc(Cl)c3)CC2)cc1 |
| 0.6% | Cc1cccc(C(=O)Nc2ccc(OCc3cc(=O)n4ccsc4n3)cc2)c1 |
| 1.1% | CCC(C(=O)Nc1cccc(-c2cn3cccnc3n2)c1)c1ccccc1 (stereo unspecified) |
| 4.8% | COc1ccc(OC)c(NC(=O)CCCOc2cc(=O)n(C)c3ccccc23)c1 |
| -1.2% | COc1ccc(-c2nc3ccccc3s2)cc1NC(=O)c1ccccc1F |
| -1.7% | CCOC(=O)c1cccc(NC(=O)Cn2c(=O)nc(-c3ccccc3F)c3cc(Cl)ccc32)c1 |
| 4.8% | Cc1cccc(NC(=O)CSc2nc3c(oc4ccccc43)c(=O)n2Cc2ccco2)c1 |
| -0.2% | CCn1cc(C(=O)N2CCN(c3ccc(F)cc3)CC2)c(=O)c2cc(S(=O)(=O)N(C)C3CCCCC3)ccc21 |
| 0.0% | O=S(=O)(NCCc1csc2nc(-c3ccccc3)nn12)c1cc(F)ccc1F |
| 0.2% | CC1=C(C(=O)Nc2ccc(C)cc2C)C(c2cccs2)n2nc(SCc3ccc(Cl)cc3)nc2N1 (stereo unspecified) |
| 0.5% | Cc1ccc(S(=O)(=O)N2CCN(c3nc(-c4cncnc4)nc4ccccc34)CC2)cc1 |
| -0.6% | O=C(c1ccc2c(c1)N(Cc1cccc(F)c1)C(=O)c1ccccc1S2)N1CCC2(CC1)OCCO2 |
| 4.5% | CCOc1ccc(-n2nc3cc(C)c(NC(=O)CC)cc3n2)cc1 |
| 0.1% | CC(=O)c1ccc(F)c(-c2cc(C)cc3c2OC(CNC(=O)c2csc(C)n2)C3)c1 (stereo unspecified) |
| 3.5% | Cc1cccc(OCCn2c(-c3ccc(Cl)cc3)nc3ccccc3c2=O)c1C |
| -0.1% | CC(=O)N1CCc2c(sc3c2c(=O)n(-c2ccc(F)cc2)c(=O)n3Cc2cc(C)ccc2C)C1 |
| -0.9% | N#Cc1nc(-c2ccc(OCc3ccccc3Cl)cc2)oc1N1CCC(C(N)=O)CC1 |
| 1.2% | Cc1ccn2c(Nc3ccc4c(c3)OCCO4)c(-c3ccc(N(C)C)cc3)nc2c1 |
| 2.6% | CC(=O)Nc1ccc(NC(=O)c2oc3ccc4c(c3c2C)C(=O)CC(C)(C)O4)cc1 |
| 5.3% | CCCCCCn1c(CNC(=O)c2ccccc2)nc2ccccc21 |
| -0.5% | CCOc1ccccc1C(=O)N1CCc2cc(OC)c(OC)cc2C1COc1ccc(OC)cc1 (stereo unspecified) |

Reprinted from the results shown, 4 compounds:
| PINK1 modulator | smiles |
| --- | --- |
| 4.8% | Cc1cccc(NC(=O)CSc2nc3c(oc4ccccc43)c(=O)n2Cc2ccco2)c1 |
| -0.2% | CCn1cc(C(=O)N2CCN(c3ccc(F)cc3)CC2)c(=O)c2cc(S(=O)(=O)N(C)C3CCCCC3)ccc21 |
| 0.0% | O=S(=O)(NCCc1csc2nc(-c3ccccc3)nn12)c1cc(F)ccc1F |
| 0.2% | CC1=C(C(=O)Nc2ccc(C)cc2C)C(c2cccs2)n2nc(SCc3ccc(Cl)cc3)nc2N1 (stereo unspecified) |

Further compounds follow.
| PINK1 modulator | smiles |
| --- | --- |
| 0.1% | CCOC(=O)c1c(NC(=O)c2cc(CC)on2)sc(C(C)=O)c1C |
| 1.0% | COc1ccc(-c2cc3c(=O)n(CC(=O)Nc4ccc(Br)c(C)c4)ccn3n2)cc1OC |
| 1.9% | Cc1nn(CC(=O)Nc2ccc(OC(F)(F)F)cc2)c(=O)c2c(C)n(-c3ccc(Cl)cc3)nc12 |
| 12% | COc1cc(OC)cc(C(=O)Nc2ccc(-c3nc4cc(C(C)C)ccc4o3)cc2)c1 |
| 1.8% | CC1=C(C(=O)Nc2ccc(C)cc2Cl)C2(CCCCCC2)OC1=O |
| 2.4% | Cc1ccc2c(=O)cc(C(=O)Nc3ccc(S(=O)(=O)N4CCCCC4)cc3)oc2c1 |
| 1.2% | CCC1CN(C(=O)Nc2ccc(Br)cc2F)c2ccccc2S1 (stereo unspecified) |
| 4.4% | COCCCNC(=O)c1c(NC(=O)Cc2coc3cc(C)ccc23)sc2c1CCCC2 |
| 3.1% | Cc1cc(Br)ccc1NC(=O)C(NS(=O)(=O)c1cccs1)c1ccccc1 (stereo unspecified) |
| -1.4% | Cc1ccc(-c2noc(-c3ccc(N4CCCCC4)c([N+](=O)[O-])c3)n2)cc1 |
| 5.4% | Cc1cc(C)cc(NC(=O)c2cc(S(=O)(=O)N3CCc4ccccc43)cn2C)c1 |
| 8.0% | CSc1ncc(C(=O)NCc2cccc(F)c2)c(-c2ccccc2)n1 |
| -3.7% | Cc1cccc(-n2ccnc2SCC(=O)Nc2ccccc2C(F)(F)F)c1 |
| 0.0% | O=c1c(-c2cc(-c3ccccc3)nc3c2COc2ccc(Cl)cc2-3)coc2ccc(F)cc12 |
| -0.9% | CCN(CC)S(=O)(=O)c1ccc2c(c1)N(CC(=O)Nc1ccccc1F)C(=O)C1CCCN21 (stereo unspecified) |
| -1.5% | Cc1cccc(C)c1-n1ncc(C(=O)NCCCN2CCCCC2)c1C1CCN(C(=O)OC(C)(C)C)CC1 |
| -0.9% | O=S(=O)(c1ccccc1C(F)(F)F)N1CCN(c2nc(-c3ccccc3)nc3ccccc23)CC1 |
| 1.6% | O=C(Cn1c(SCCOc2ccc(Cl)cc2)nc2ccccc21)N1CCCCC1 |
| 8.2% | Cc1ccccc1Nc1c(-c2ccc(Cl)s2)nc2cccc(C)n12 |
| -0.9% | COc1cccc(CNC(=O)CCS(=O)(=O)c2cc3c4c(c2)CCN4C(=O)CC3)c1 |
| -1.5% | Cc1c(Cl)cccc1NC(=O)NCc1c(-n2cccc2)sc2c1CCCC2 |
| 6.7% | Cc1ccc(-n2c(=O)c3cccnc3n2CC(=O)Nc2ccccc2C(F)(F)F)cc1C |
| 2.9% | Cc1ccc(C(=O)/C=C/c2cn(CC(O)CN3CCCCCC3)c3ccccc23)cc1 (stereo unspecified) |
| 0.1% | CCOCCCNc1nc2cc(OC)c(OC)cc2c2nc(-c3ccccc3)nn12 |
| -0.5% | CCOc1cc(CNC(=O)CSc2n[nH]c(-c3ccccc3)n2)cc(OCC)c1OCC |
| 13% | CCCn1c2ccccc2c2cnn(CC(=O)Nc3cc(OC)c(OC)c(OC)c3)c(=O)c21 |
| 5.0% | CCC(=O)N1CCc2cc(Br)cc(S(=O)(=O)N3CCN(c4ccccc4OC)CC3)c21 |
| 1.2% | CCCCNC(=O)CCn1c(=O)c2cccn2c2cccnc21 |
| 19% | COc1ccc(Cn2ccnc2SCC(=O)Nc2ccc(C)cc2C)cc1 |
| 11% | Cc1cccc(NC(=O)c2cc3c(=O)n4cccc(C)c4nc3s2)c1C |
| 0.6% | COCCNc1oc(-c2ccccc2)nc1S(=O)(=O)c1ccc(Br)cc1 |
| 0.9% | COCCCNC(=O)C1CCN(c2nn3cc(-c4ccc(F)cc4)nc3s2)CC1 |
| 0.9% | Cc1ccc(N(C)C(=O)CN2C(=O)CCc3cc(S(=O)(=O)N4CCOCC4)ccc32)cc1 |
| 13% | CC1CCCCN1C(=O)CSc1nc2ccccc2nc1Cc1ccc(Cl)cc1 (stereo unspecified) |
| ? | Cc1ccc(CN(Cc2ccco2)C(=O)COc2ccc(C)c(C)c2)cc1 |
| 1.3% | COc1ccc(N2CCN(c3c4c(nc5nncn35)CCC4)CC2)cc1 |
| -0.4% | COc1ccc(CC(=O)NCc2ccc3c(c2)CCN3C(C)=O)cc1OC |
| 0.8% | O=C(NCC(c1ccco1)S(=O)(=O)c1ccc(Cl)cc1)c1ccc(C(F)(F)F)cc1 (stereo unspecified) |
| 1.0% | Cc1ccc(CNC(=O)c2ccc(CSCc3ccc(Cl)cc3)o2)cc1 |
| -0.5% | O=[N+]([O-])c1ccccc1S(=O)(=O)N1CCN(S(=O)(=O)c2ccc3c(c2)OCCO3)CC1 |
| 1.1% | Cc1ccc(-c2noc(-c3cccnc3NCc3ccco3)n2)cc1 |
| 1.8% | CCC1CCCCN1C(=O)CCS(=O)(=O)c1cc2c(cc1C)NC(=O)CO2 (stereo unspecified) |
| 0.9% | CCOC(=O)c1sc2ccccc2c1S(=O)(=O)N1CCN(c2cccc(C)c2C)CC1 |
| 0.9% | CCc1ccccc1NC(=O)CN1C(=O)c2cccnc2Sc2ccccc21 |
| -0.3% | COc1ccc(C(=O)NCC(c2ccc3c(c2)OCO3)N2CCN(C)CC2)cc1OC (stereo unspecified) |
| -0.8% | O=C(NC1(C(F)(F)F)C(=O)Nc2c1c(=O)[nH]c(=O)n2-c1ccc(F)cc1)c1ccccc1 (stereo unspecified) |
| 0.9% | COc1ccc(NC(=O)c2ccco2)cc1NC(=O)c1cc(Cl)ccc1OC |
| 0.5% | CC(C)CCOc1ccc(Oc2nc(N(C)C)nc(N(C)C)n2)nn1 |
| -0.3% | COc1ccc(-c2[nH]ncc2C(=O)NCc2cccc(F)c2)cc1 |
| 1.2% | Cc1ccc2nc(NC(=O)c3nc(SCc4ccccc4C)ncc3Cl)sc2c1 |
| -1.6% | Cc1ccc(O)c(Nc2nc3ccccc3c3nncn23)c1 |
| -0.8% | COc1ccc(NC(=O)c2c(C)oc3ccc(O)c(CN4CCN(Cc5ccccc5)CC4)c23)cc1 |
| -2.2% | Cc1nn(CC(=O)NCC(C)c2ccccc2)c(=O)c2cc3ccccc3n12 (stereo unspecified) |
| 2.7% | CCOC(=O)c1ccc2c(c1)N(Cc1cccc(C(F)(F)F)c1)C(=O)c1ccccc1S2(=O)=O |
| 1.6% | COc1ccccc1NC(=O)C1=C(C)Nc2nc3ccccc3n2C1c1cccc(OC)c1OC (stereo unspecified) |
| 0.3% | CCc1ccc(C2=C(C)C(N3CCC(C(=O)NCCc4ccco4)CC3)=NS2(=O)=O)cc1 |
| 3.1% | CCn1cc(C(=O)NCc2ccc(C)cc2)c(=O)c2cc(S(=O)(=O)N3CCC(C)CC3)ccc21 |
| 0.1% | Cc1cccc(C)c1OCC(=O)N(Cc1ccco1)Cc1ccco1 |
| 2.2% | CCC(Cc1ccccc1)NC(=O)c1csc2c1CCCCC2 (stereo unspecified) |
| 3.2% | CC(C)CC(=O)n1nc(-c2cccnc2)nc1NCc1ccc(F)cc1 |

The results go on:
| PINK1 modulator | smiles |
| --- | --- |
| 0.1% | Cc1ccc2c(CC(=O)Nc3ccc(S(=O)(=O)N4CCCCC4C)cc3)coc2c1C (stereo unspecified) |
| 4.8% | COC(=O)c1scc(-c2ccc(C)cc2)c1S(=O)(=O)Nc1ccc(OC(F)(F)F)cc1 |
| -0.1% | Cc1ccc(NC(=O)Nc2nnc(N3CCCC3)s2)c(C)c1 |
| 1.9% | CCCCCCN(CCCCCC)c1ccc(/C=C/c2ccnc3ccccc23)cc1 |
| -0.1% | Cc1ccc(NC(=O)/C(C#N)=C/c2ccc(C(C)C)cc2)cc1C |
| 1.4% | Cc1nc2ccccn2c(=O)c1NC(=O)c1ccc(F)c(F)c1 |
| -0.2% | COCCN1CCN(C(=O)c2cnn(-c3nccc(-c4cc5ccccc5o4)n3)c2C2CC2)CC1 |
| 2.7% | Cc1ccc(-n2nc(C)c(C(=O)NCCCN3CCN(c4cccc(Cl)c4)CC3)c2-n2cccc2)cc1 |
| 2.2% | CCOc1ccc(Nc2nc3cc(Cl)c(Cl)cc3nc2-n2nc(C)cc2C)cc1 |
| 1.6% | Cc1cc(C)n(-c2ccc(C(=O)N3CCc4c(cnc(C)c4CNC(=O)c4ccccc4F)C3)cc2)n1 |
| 1.4% | Cc1ccc2[nH]c3c(=O)n(CC(=O)N(C)c4cc(Cl)ccc4C)ncc3c2c1 |
| -0.2% | Cc1ccc(-c2noc(-c3cc(-c4ccc(F)cc4)n[nH]3)n2)cc1 |
| 1.2% | CCOc1ccccc1CNC(=O)Cn1nc(C)c2nn(-c3ccc(Cl)cc3)c(C)c2c1=O |
| -0.7% | COc1cccc(CNC(=O)Cn2c(=O)cc(C)c3c(C)nn(C)c32)c1OC |
| 2.8% | O=C(NCCc1ccccc1)c1ccc(Cn2c(SCc3ccccc3F)nc3cccnc32)cc1 |
| 3.5% | COc1ccc(CNC(=O)CCCc2nnc3n(CCC(C)C)c(=O)c4sccc4n23)cc1 |
| 3.3% | Cc1cccc(NC(=O)c2ccc3c(O)c(S(=O)(=O)c4ccccc4)c(=O)[nH]c3c2)c1C |
| 17% | CCNC(=O)c1c(NC(=O)c2cc(=O)c3ccc(C)c(C)c3o2)sc2c1CCCC2 |

In another format: results already given.
mol | PINK1 modulator
Cc1ccc(CNC(=O)c2ccc(CSCc3ccc(Cl)cc3)o2)cc1 | 1.0%
O=[N+]([O-])c1ccccc1S(=O)(=O)N1CCN(S(=O)(=O)c2ccc3c(c2)OCCO3)CC1 | -0.5%
Cc1ccc(-c2noc(-c3cccnc3NCc3ccco3)n2)cc1 | 1.1%
CCC1CCCCN1C(=O)CCS(=O)(=O)c1cc2c(cc1C)NC(=O)CO2 (stereo unspecified) | 1.8%

Some of the compounds tested, so the mix of outcomes need not match the whole.
